Assay outcomes deposited in PubChem by National Center for Advancing Translational Sciences (NCATS).
2A StopGo = FMDV 2A StopGo reporter, luciferase signal; human cells with a luciferase reporter of 2A StopGo recoding; control for the full effect not named in the record; 410,000 tested, 1.2% active; AID 1159524; Potency, µM (doses to about 57.9 µM), for inactives: at the highest dose signal change, negative = less light; active = well fitted falling curve with a large enough effect; inconclusive = small, poorly fitted or top-dose-only effect; inactive = no such curve, though single readings can be large or run the other way; tested in HEK293T cells; further: on the % scale 0 is the no-effect control and ±100 the full control effect; nearly all actives have a fitted effect of over 45% in size; luciferase light after 4 h
SARS PLP yeast = SARS-CoV PLP inhibition in yeast. S. cerevisiae expressing SARS-CoV PLpro, growth rescue; control for the full effect not named in the record. Potency, µM (titrated, usually from 32.9 µM), inactives show at the top dose activity, positive = growth rescue. 330,000 tested, 0.19% active. AID 485353; further: 0% is about no effect; nearly all actives have a fitted effect of over 55% in size; growth read by luminescence after 48 h
MARV entry inh = inhibitors of Marburg virus binding or cell entry; Marburg virus pseudotyped entry inhibition, cell reporter; control for the full effect not named in the record; about a third of the inactives were read at about 46 µM; Potency, µM (doses to about 37.8 µM), for inactives: at the top dose activity change, negative = inhibition, most hits filed as inhibitors; 300,000 tested, 1.8% active; AID 540276; active = well fitted inhibition curve with a large enough effect; inconclusive = small, poorly fitted or top-dose-only effect, or effect the other way; inactive = flat fitted curve, though single readings scatter; tested in HEK293 cells; about a fifth of its hits are not listed in these tables; further: on the % scale 0 is the no-effect control and ±100 the full control effect; luciferase read-out
Lassa entry inh = inhibitors of Lassa virus binding or cell entry | Lassa virus pseudotype entry inhibition, cell reporter; control for the full effect not named in the record | Potency, µM (top dose mostly 37.9 µM), for the others: at the highest dose activity change, negative = inhibition, most hits filed as inhibitors | 300,000 tested, 1.2% active; active means well fitted inhibition curve with a large enough effect; inconclusive means small, poorly fitted or top-dose-only effect, or effect the other way; inactive means flat fitted curve, though single readings scatter; tested in HEK293 cells; further: on the % scale 0 is the no-effect control and ±100 the full control effect; nearly all actives have a fitted effect of over 50% in size; luciferase read-out
NS1 function inh = influenza NS1 inhibition. S. cerevisiae slowed by influenza A NS1, growth recovery by OD600. Potency, µM (titrated, usually from 46.1 µM), for inactives: at the highest dose activity, positive = more growth. 270,000 tested, 0.4% active; further: actives are rising curves; nearly all actives have a fitted effect of over 50% in size
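Compounds were scored for reversing the slow growth caused by influenza A NS1 in S. cerevisiae, measured by optical density at 600 nm. Assay medium contained 2% galactose at pH 6.0; NS1-free yeast of the same strain were the positive control.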
RE007 growth inh = less growth of the S. pombe RE007 Vpr strain; AID 651644; S. pombe RE007 Vpr strain, BacTiter-Glo ATP luminescence, 24 h; control for the full effect not named in the record; Potency, µM (titrated, usually from 92.2 µM), without a hit: at the highest dose activity change, negative = less growth; 360,000 tested, 0.21% active; active = well fitted falling curve with a large enough effect; inconclusive = small, poorly fitted or top-dose-only effect; inactive = no such curve, though single readings can be large or run the other way;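 further: on the % scale 0 is the no-effect control and ±100 the full control effect; nearly all actives have a fitted effect of over 50% in size; the assay follows cell death caused by Vpr and the record does not say whether a fall means rescue or toxicity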
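Fission yeast strain RE007, carrying one chromosomally integrated HIV-1 vpr copy, was seeded at OD 0.01 in PMG+AL medium with 23 nL pinned compound. After 24 h at 30 °C and 99% humidity, viability was read by BacTiter-Glo luminescence.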
Cruzain inh noDet = blocks cruzain activity in detergent-free assay. P25779. purified cruzain, Z-FR-AMC fluorescence, no detergent. Potency, µM, without a hit: max response, negative = inhibition, usual class: inhibitors. 200,000 tested, 2.3% active; active means well fitted curve in the direction sought with a large enough effect; inconclusive means small, poorly fitted or top-dose-only effect, or another doubt; inactive means no such curve, though single readings can be large; an effect the other way counts as inactive or inconclusive;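 further: plate controls were enzyme without inhibitor for no effect and buffer without enzyme for full effect; nearly all actives have a fitted effect of over 40% in size; top concentration of the series not given in the record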
Target sequence (P25779 123-467 limits assumed): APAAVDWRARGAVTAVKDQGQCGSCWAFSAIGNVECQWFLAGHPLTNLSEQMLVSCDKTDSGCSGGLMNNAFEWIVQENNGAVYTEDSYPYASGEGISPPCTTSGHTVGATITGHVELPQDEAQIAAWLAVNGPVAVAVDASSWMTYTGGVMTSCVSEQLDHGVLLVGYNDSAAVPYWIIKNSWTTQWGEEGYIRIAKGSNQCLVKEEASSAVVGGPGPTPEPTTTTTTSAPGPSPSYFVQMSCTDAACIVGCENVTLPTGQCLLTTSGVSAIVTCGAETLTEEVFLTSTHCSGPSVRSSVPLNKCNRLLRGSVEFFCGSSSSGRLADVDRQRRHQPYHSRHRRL
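Detergent-free condition (0.00005% Triton X-100) in acetate buffer pH 5.5 with DTT. 1.5 nM enzyme and compound were pre-mixed 15 min, then 2 uM Z-FR-AMC substrate added; reaction progress from fluorescence change between first and third reads (60 s).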
Cruzain Triton = blocks cruzain activity in presence of Triton detergent; purified cruzain, Z-FR-AMC fluorescence, 0.01% Triton; Potency, µM, for inactives: max response, negative = inhibition, hits mostly inhibitors; P25779; 200,000 tested, 0.43% active; AID 1478; active means well fitted curve in the direction sought with a large enough effect; inconclusive means small, poorly fitted or top-dose-only effect, or another doubt; inactive means no such curve, though single readings can be large; an effect the other way counts as inactive or inconclusive;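 further: plate controls were neutral wells for no effect and buffer without enzyme for full effect; nearly all actives have a fitted effect of over 40% in size; top concentration of the series not given in the record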
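Cysteine protease activity tested under reducing, mildly acidic conditions (100 mM sodium acetate pH 5.5, 5 mM DTT) plus 0.01% Triton X-100. Cruzain 1.5 nM; substrate Z-FR-AMC 2 uM; 15 min compound preincubation at room temperature.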
Starred values were filed as active, the others as inactive; ? = inconclusive; · = no result given; & = joins results of further samples; [ ] = dose if it differs, or a comment. Unless noted, the call rests on the fitted dose curve; in most records, active means well fitted rising curve with a large enough effect; inconclusive means small, poorly fitted or top-dose-only effect; inactive means no such curve, though single readings can be large or run the other way. Potency means the concentration at half of the fitted maximal effect.

SMILES	2A StopGo	SARS PLP yeast	MARV entry inh	Lassa entry inh	NS1 function inh	RE007 growth inh	Cruzain inh noDet	Cruzain Triton
COc1ccc(/C=C/C(=O)OCC(=O)N2CC(=O)Nc3ccccc32)cc1S(=O)(=O)N1CCOCC1	-12%	-2%	-10%	?	·	11%	·	·
Cc1occc1-c1nnc(SCC(=O)N2CCN(c3ccccc3)CC2)n1C	?	0%	-13%	-18%	3%	6%	9%	-4.4%
COc1ccc(C(=O)CC(=O)C(=O)Nc2c(C)cccc2C)cc1	-22%	1%	·	·	-67%	-27%	·	·
Cc1cccc(NC(=O)CN(C)S(=O)(=O)c2ccc(Br)cc2)n1	-27%	6%	7%	?	-6%	13%	10%	0.9%
CCOC(=O)C1CCCN(S(=O)(=O)c2cc(-c3cc(C)no3)ccc2C)C1 (stereo not drawn)	?	·	·	-4%[46.1 µM]	·	·	18%	-0.4%
CC1Cn2c(nnc2-c2ccc(F)cc2)S1 (stereo not drawn)	-8%	2%	·	·	0%	-6%	-7%	-4.0%
Cc1cc(OCC(=O)NCCCN2CCOCC2)c2c(C)c(C)c(=O)oc2c1	-13%	3%	·	·	2%	5%	·	·
COc1ccc(OC)c(S(=O)(=O)Nc2cc3c4c(c2)CCN4C(=O)CC3)c1	61%[activator]	8%	-12%	2%	·	-19%	·	·
COc1ccccc1CN1CCN(C(=O)c2ccco2)CC1	0%	-2%	21%	11%	9%	1%	·	·
O=C(NNS(=O)(=O)c1ccccc1)c1csc(-c2cccnc2)n1	-14%	0%	?	3%	4%	1%	·	·
O=c1[nH]c(=O)n(-c2cccc3ccccc23)c(O)c1/C=N/N1CCCCC1c1cccnc1 (stereo not drawn)	-8%	-4%	0%	·	5%	-5%	-12%	-1.8%
COCCNC(=O)C(c1ccc(F)cc1)N(C(=O)CCC(=O)Nc1nccs1)c1cccc(C)c1 (stereo not drawn)	-10%	-1%	?	-9%	6%	-12%	·	·
CC(NC(=O)c1ccc(Cn2cc([N+](=O)[O-])cn2)o1)c1ccccc1 (stereo not drawn)	11%	2%	?	?	12%	1%	2%	-0.8%
O=C(/C=C/c1cccs1)NC(=S)Nc1ccc(S(=O)(=O)Nc2ccccc2C(F)(F)F)cc1	-7%	2%	-3%	·	-2%	9%	·	·
Cc1ccccc1OCC(=O)NC(=S)Nc1ccc(Br)c(C)n1	·	-5%	-1%	?	-16%	-7%	-6%	2.2%
Cc1ccc(NC(=O)Nc2ccc3c(c2)OCO3)c(OC(F)F)c1	50%[activator]	-9%	-22%	-24%	-3%	-2%	·	·
O=C(c1ccco1)N1CCN(C(=O)C2CC(=O)N(c3ccc(Cl)cc3)C2)CC1 (stereo not drawn)	-23%	4%	-3%[46.1 µM]	-1%[46.1 µM]	22%	-4%	·	·
COc1ccc(CC(=O)NNC(=O)c2cccs2)cc1OC	-7%	0%	0%[46.1 µM]	5%	7%	-6%	·	·
CCSc1nnc(CNC(=O)C23CC4CC(CC(C4)C2)C3)n1Cc1ccccc1	-25%	17%	-18%	6%	-8%	-17%	6%	0.2%
CCN1C(=O)C(Cc2nc3ccccc3c(=O)n2-c2ccccc2)c2ccccc21 (stereo not drawn)	-18%	-1%	-9%	5%	3%	10%	11%	-3.9%
Cc1ccc(C(=O)NCCCCNC(=O)c2ccc(C)o2)o1	-19%	-6%	3%	-2%	-1%	-9%	7%	-1.9%
Cc1cccc(N2CCN(C(=O)NC3CCCCC3)CC2)c1C	13%	-8%	·	·	4%	1%	·	·
O=C(c1cn(Cc2ccccc2)c2ccccc12)C1CC1	-14%	-3%	-24%	?	·	11%	·	·
CCOC(=O)c1cc(NC(=O)N(CC)C2CCCCC2)c(C)nc1C	-22%	14µM*	0%	-11%	21%	-4%	5%	2.5%
C=CCn1c(=O)c2ccccc2n2c(SCC(=O)NCCc3ccccc3)nnc12	-20%	·	-9%	-18%	7%	-2%	-9%	-0.2%

Continued; the last 5 above are carried over.
SMILES	2A StopGo	SARS PLP yeast	MARV entry inh	Lassa entry inh	NS1 function inh	RE007 growth inh	Cruzain inh noDet	Cruzain Triton
Cc1ccc(C(=O)NCCCCNC(=O)c2ccc(C)o2)o1	-19%	-6%	3%	-2%	-1%	-9%	7%	-1.9%
Cc1cccc(N2CCN(C(=O)NC3CCCCC3)CC2)c1C	13%	-8%	·	·	4%	1%	·	·
O=C(c1cn(Cc2ccccc2)c2ccccc12)C1CC1	-14%	-3%	-24%	?	·	11%	·	·
CCOC(=O)c1cc(NC(=O)N(CC)C2CCCCC2)c(C)nc1C	-22%	14µM*	0%	-11%	21%	-4%	5%	2.5%
C=CCn1c(=O)c2ccccc2n2c(SCC(=O)NCCc3ccccc3)nnc12	-20%	·	-9%	-18%	7%	-2%	-9%	-0.2%
CC(C)OC(=O)C(C#N)c1nc2ccccc2nc1N1CCN(Cc2ccc3c(c2)OCO3)CC1 (stereo not drawn)	·	0%	·	·	-9%	·	3%	-4.4%
CC(=O)c1cc(-c2ccccc2)n(CCC(=O)NC(C)c2ccccc2)c1C (stereo not drawn)	-3%	·	·	-7%[46.1 µM]	·	·	-8%	-1.5%
CC(Sc1nnnn1C1CC1)C(=O)N1c2ccccc2NC(=O)C1(C)C (stereo not drawn)	5%	2%	6%	11%	·	2%	·	·
CN1CCC(C(=O)N2CCCC(C(=O)c3ccc4c5c(cccc35)CC4)C2)CC1 (stereo not drawn)	-14%	3%	·	·	0%	-15%	·	·
CC(Nc1nc(-c2ccncc2)nc2ccccc12)c1ccccc1 (stereo not drawn)	?	-3%	·	·	-3%	14%	·	·
O=C1NC(=O)/C(=C\c2ccc(OCc3ccccc3)cc2)S1	25%	8%	·	·	-3%	24%	·	·
CC1(C)CC(=O)C2=C(C1)OC(N)=C(C#N)C2c1ccccc1OC(=O)N1CCOCC1 (stereo not drawn)	5%	3%	0%	20%	1%	-9%	-4%	2.7%
Cc1ccc(C(=O)N2CCCC(CCC(=O)N3CCN(c4ccccn4)CC3)C2)cn1 (stereo not drawn)	-22%	-3%	-7%	9%	-8%	-12%	·	·
O=c1[nH]cc(NCc2ccccc2)c(=O)[nH]1	-14%	·	-27%&-27%	?	·	3%	·	·
Cc1ccc(C(O)c2nccn2C)o1 (stereo not drawn)	·	11%	3%	-1%	5%	10%	-3%	1.2%
Cc1c(OC(C)C(=O)O)ccc2c(-c3ccccc3)cc(=O)oc12 (stereo not drawn)	-5%	0%	·	·	-2%	-12%	·	·
CCOC(=O)CSc1nc2ccc(NC(=O)CSc3nnnn3Cc3ccccc3)cc2s1	8%	24%	-1%	-5%	4%	-4%	0%	-17%
COc1ccc(C(=O)C=CNNC(=O)c2ccc(Cl)cc2)cc1	-9%	0%	?	5.6µM*	1%	29%	·	·
C=CCn1c(SCC(=O)N2CCN(c3ccccc3)CC2)nc2c([nH]c3ccccc32)c1=O	-22%	-8%	·	·	6%	2%	·	·
CCOc1ccc(S(=O)(=O)N2CCCC(C(=O)NCC3CCCO3)C2)cc1Cl (stereo not drawn)	-19%	1%	-16%	-16%	·	16%	·	·
Cc1c(NC=C(C#N)C#N)c(=O)n(-c2ccccc2)n1C	2%	1%	2%[46.1 µM]	?	-4%	2%	·	·
Cc1ccc(OCC(=O)Nc2ccccc2OCc2cc(=O)n3ccccc3n2)cc1C	41%[activator]	·	·	7%[46.1 µM]	·	·	-17%	3.8%
Cc1nn2c(-c3cccnc3)ccnc2c1-c1ccccc1	11%	-5%	?	17%	5%	9%	2%	-2.0%
COC(=O)c1nn(-c2ccc(C)cc2)ccc1=O	-3%	1%	-3%	-1%	-2%	8%	·	·
O=C(Nc1cc(S(=O)(=O)N2CCOCC2)ccc1Oc1ccc(F)cc1)C1=COCCO1	-17%	2%	-15%[46.1 µM]	6%	·	-17%	·	·
CCc1cc2ccc(C)cc2nc1SCC(=O)NC1CCCC1	7%	-2%	?	3%[46.1 µM]	1%	28%	·	·
O=C(O)CSCC(=O)Nc1cc(C(F)(F)F)ccc1Cl	·	1%	2%	17%	2%	-5%	-1%	2.1%
CCC(C)n1c(=N)c(C(=O)NC2CCCC2)cc2c(=O)n3ccccc3nc21 (stereo not drawn)	11%	·	-23%[46.1 µM]	-3%[46.1 µM]	·	·	-5%	-12%
COc1ccc(C(c2c(C)n(C)n(-c3ccccc3)c2=O)c2c(C)n(C)n(-c3ccccc3)c2=O)cc1	4%	-1%	·	·	7%	-6%	·	·
Cc1ccc2nc(NC(=O)C3CC(=O)N(Cc4ccco4)C3)sc2c1 (stereo not drawn)	10%	-2%	10%[46.1 µM]	25%[46.1 µM]	·	-5%	·	·
Other structures:
SMILES	2A StopGo	SARS PLP yeast	MARV entry inh	Lassa entry inh	NS1 function inh	RE007 growth inh	Cruzain inh noDet	Cruzain Triton
CCC(CC)C(=O)Nc1cc([N+](=O)[O-])ccc1Cl	-16%	5%	?	5%	?	-5%	14%	-0.3%
CS(=O)(=O)c1ccc2nc(NC(=O)c3cccc(NS(=O)(=O)c4ccc(F)c(F)c4)c3)sc2c1	-17%	9%	7%	?	27%	-2%	-29%	-6.9%
Cc1ccc2c(c1)N(C(=O)C1CCN(S(=O)(=O)c3c(C)noc3/C=C/c3ccccc3F)CC1)CCO2	-18%	·	·	-14%[46.1 µM]	·	·	13µM*	-4.9%
CCn1c(SCC(=O)NNC(=O)c2ccc(OC)cc2)nnc1-c1cccnc1	0%	0%	1%[46.1 µM]	4%	-1%	4%	·	·
C/C(CC(=O)NCCCN1CCOCC1)=N\NC(=O)COc1ccc(Cl)cc1	-2%	1%	14%	3%	-7%	11%	-9%	1.1%
O=C(CSc1nc2[nH]c(=O)[nH]c(=O)c2s1)Nc1cccc(F)c1	-31%	-10%	?	10%	·	5%	·	·
